Cruzain noTriton: qHTS Assay for Promiscuous and Specific Inhibitors of Cruzain (without detergent); Cruzipain (Trypanosoma cruzi), P25779; purified cruzain, Z-FR-AMC fluorescence, no detergent; Potency, µM, for the others: max response, negative = inhibition, hits mostly inhibitors; hit rate 2.3% among 200,000; AID 1476, 2009;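 note: plate controls were enzyme without inhibitor for no effect and buffer without enzyme for full effect; nearly all actives have a fitted effect of over 40% in size; top concentration of the series not given in the record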
Target sequence (P25779 123-467 limits assumed): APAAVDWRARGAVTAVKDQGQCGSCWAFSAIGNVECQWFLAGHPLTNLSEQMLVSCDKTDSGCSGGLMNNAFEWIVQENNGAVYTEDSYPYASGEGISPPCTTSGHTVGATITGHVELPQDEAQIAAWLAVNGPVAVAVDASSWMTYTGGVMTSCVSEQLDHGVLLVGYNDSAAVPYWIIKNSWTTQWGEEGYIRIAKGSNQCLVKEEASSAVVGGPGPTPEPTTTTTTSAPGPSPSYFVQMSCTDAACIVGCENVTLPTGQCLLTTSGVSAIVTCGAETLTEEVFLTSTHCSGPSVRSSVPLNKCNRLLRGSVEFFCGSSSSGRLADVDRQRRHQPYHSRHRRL
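Purified cruzain at 1.5 nM, pre-incubated 15 min with compound at room temperature in 100 mM sodium acetate pH 5.5, 5 mM DTT, 0.00005% Triton X-100. Reaction started with 2 uM Z-FR-AMC; AMC fluorescence increase over 60 s gives rate.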
NS1 inh: qHTS Assay for Inhibitors of Influenza NS1 Protein Function | S. cerevisiae slowed by influenza A NS1, growth recovery by OD600 | Potency, µM (highest dose often 46.1 µM), inactives show at the highest dose activity, positive = more growth | hit rate 0.4% among 270,000; active means well fitted rising curve with a large enough effect; inconclusive means small, poorly fitted or top-dose-only effect; inactive means no such curve, though single readings can be large or run the other way; note: nearly all actives have a fitted effect of over 50% in size
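OD600 was taken as the measure of yeast growth restored by compound in an NS1-expressing S. cerevisiae strain. Cells had been washed out of glucose medium and diluted 1:100 into galactose -URA medium, pH 6.0.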
LASV entry inh: qHTS for Inhibitors of binding or entry into cells for Lassa Virus. Potency, µM (top dose mostly 37.9 µM), without a hit: at the highest dose activity change, negative = inhibition, hits mostly inhibitors. AID 540256, 2011. hit rate 1.2% among 300,000. Lassa virus pseudotype entry inhibition, cell reporter; control for the full effect not named in the record; active means well fitted inhibition curve with a large enough effect; inconclusive means small, poorly fitted or top-dose-only effect, or effect the other way; inactive means flat fitted curve, though single readings scatter; tested in HEK293 cells; note: % is set by controls: 0 for no effect and ±100 for the full control effect; nearly all actives have a fitted effect of over 50% in size; luciferase read-out
SARS PLpro yeast: qHTS of Yeast-based Assay for SARS-CoV PLP; S. cerevisiae expressing SARS-CoV PLpro, growth rescue; control for the full effect not named in the record; Potency, µM (highest dose often 32.9 µM), for inactives: at the highest dose activity, positive = growth rescue; hit rate 0.19% among 330,000; active means well fitted rising curve with a large enough effect; inconclusive means small, poorly fitted or top-dose-only effect; inactive means no such curve, though single readings can be large or run the other way; note: 0% is about no effect; nearly all actives have a fitted effect of over 55% in size; growth read by luminescence after 48 h
RE007 growth inh: qHTS Assay for Inhibitors of the HIV-1 protein Vpr. AID 651644, 2012. hit rate 0.21% among 360,000. S. pombe RE007 Vpr strain, BacTiter-Glo ATP luminescence, 24 h; control for the full effect not named in the record. Potency, µM (series often up to 92.2 µM), without a hit: at the highest dose activity change, negative = less growth; active = well fitted falling curve with a large enough effect; inconclusive = small, poorly fitted or top-dose-only effect; inactive = no such curve, though single readings can be large or run the other way;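 note: % is set by controls: 0 for no effect and ±100 for the full control effect; nearly all actives have a fitted effect of over 50% in size; the assay follows cell death caused by Vpr and the record does not say whether a fall means rescue or toxicity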
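Fission yeast strain RE007, carrying one chromosomally integrated HIV-1 vpr copy, was seeded at OD 0.01 in PMG+AL medium with 23 nL pinned compound. After 24 h at 30 °C and 99% humidity, viability was read by BacTiter-Glo luminescence.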
Marburg entry inh: qHTS for inhibitors of binding or entry into cells for Marburg Virus; Marburg virus pseudotyped entry inhibition, cell reporter; control for the full effect not named in the record; about a third of the inactives were read at about 46 µM; Potency, µM (titrated, usually from 37.8 µM), for the others: at the highest dose activity change, negative = inhibition, actives largely listed as inhibitors; hit rate 1.8% among 300,000; AID 540276, 2011; active = well fitted inhibition curve with a large enough effect; inconclusive = small, poorly fitted or top-dose-only effect, or effect the other way; inactive = flat fitted curve, though single readings scatter; tested in HEK293 cells; about a fifth of its hits are not listed in these tables; note: % is set by controls: 0 for no effect and ±100 for the full control effect; luciferase read-out
Cruzain Triton: qHTS Assay for Promiscuous and Specific Inhibitors of Cruzain (with detergent) | Cruzipain (Trypanosoma cruzi), P25779 | purified cruzain, Z-FR-AMC fluorescence, 0.01% Triton | Potency, µM, inactives show max response, negative = inhibition, hits mostly inhibitors | hit rate 0.43% among 200,000 | AID 1478, 2009;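 note: plate controls were neutral wells for no effect and buffer without enzyme for full effect; nearly all actives have a fitted effect of over 40% in size; top concentration of the series not given in the record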
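Read-out: AMC fluorescence (360 nm excitation, 450 nm emission), four reads over 2 min, first-to-third difference used. Conditions: cruzain 1.5 nM, Z-FR-AMC 2 uM, pH 5.5 acetate, 5 mM DTT, 0.01% Triton X-100.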
2A StopGo: High Throughput Screening for Foot and Mouth Disease Virus Antivirals; human cells with a luciferase reporter of 2A StopGo recoding; control for the full effect not named in the record; Potency, µM (highest dose often 57.9 µM), for the others: at the highest dose signal change, negative = less light; hit rate 1.2% among 410,000; AID 1159524, 2015; active = well fitted falling curve with a large enough effect; inconclusive = small, poorly fitted or top-dose-only effect; inactive = no such curve, though single readings can be large or run the other way; tested in HEK293T cells; note: % is set by controls: 0 for no effect and ±100 for the full control effect; nearly all actives have a fitted effect of over 45% in size; luciferase light after 4 h
An asterisk follows results filed as active; ? = inconclusive; / = not tested or not shown; [ ] = dose if it differs, or a comment. Unless noted, calls come from the whole dose curve; as a rule, active = well fitted curve in the direction sought with a large enough effect; inconclusive = small, poorly fitted or top-dose-only effect, or another doubt; inactive = no such curve, though single readings can be large; an effect the other way counts as inactive or inconclusive. Potency is the fitted concentration of half-maximal effect.

SMILES | Cruzain noTriton | NS1 inh | LASV entry inh | SARS PLpro yeast | RE007 growth inh | Marburg entry inh | Cruzain Triton | 2A StopGo
Cc1nn(-c2ccccc2)c2sc(C(=O)Nc3ccc(Cl)cc3Cl)cc12 | 2% | / | 1%[46.1 µM] | / | / | / | 0.1% | 28%
Cc1ccc(C)c(OCC(=O)Nc2sc3c(c2C#N)CCCC3)c1C | 0% | / | 8%[46.1 µM] | / | / | 5%[46.1 µM] | -3.6% | -10%
CN1CCN(C(=O)c2ccc(N(C)S(=O)(=O)c3cccs3)cc2)CC1 | / | / | 24%[46.1 µM] | 1% | 10% | 22%[46.1 µM] | / | -5%
CC1CCCN(CCCNC(=O)c2nn(C)c3c2CSc2ccccc2-3)C1 (stereo not drawn) | / | -6% | -22%[46.1 µM] | -9% | -17% | ? | / | 19%
COc1ccc(CNC(=O)COC(=O)/C=C/c2cccc(Br)c2)cc1 | / | / | -1%[46.1 µM] | 1% | -6% | 1%[46.1 µM] | / | -4%
COc1cc(/C=C/C(=O)c2ccc3c(c2)OCO3)cc(Cl)c1O | / | -48% | -12%[46.1 µM] | -6% | 6% | ? | / | 30%
Cc1c(CC(=O)NCCCC(=O)O)c(=O)oc2cc3oc4c(c3cc12)CCCC4 | / | 6% | -6% | 0% | -11% | -2% | / | 16%
COc1ccc(-n2nc([N+](=O)[O-])c(=NCc3cccnc3)n2O)cc1 | -3% | -6% | ? | -6% | -13% | ? | -6.8% | 14%
O=C(COc1ccc2ccccc2c1)NNC(=O)Nc1ccc(F)cc1F | / | 4% | 3% | 2% | 13% | -6% | / | -3%
CCCCS(=O)(=O)c1oc(-c2cccs2)nc1S(=O)(=O)c1ccccc1 | -5% | / | ? | / | / | ? | -9.9% | ?
Cc1c(CNC2CCCCC2)c(C(=O)O)c(C)n1Cc1cccc(Cl)c1 | -4% | / | ? | / | / | 3%[46.1 µM] | -1.7% | 0%
CCOc1ccc(-n2c(=O)c3ccccc3c3ccccc3c2=O)cc1 | / | 4% | -21% | -1% | -3% | -25%[46.1 µM] | / | ?
Cc1ccc2nc(N3CCN(c4cccc(C)c4C)CC3)c3nncn3c2c1 | -10% | / | ? | / | / | -9%[46.1 µM] | -1.9% | -15%
COC(=O)CN1C(=O)N/C(=C/c2cc3c(cc2OC)OCO3)C1=O | / | / | 14% | 5% | 18% | -1%[46.1 µM] | / | 5%
CCOc1ccc(NC(=O)c2ccncc2)cc1 | -3% | -2% | 30% | 0% | 4% | -13% | 1.1% | 15%
O=C(NC(=S)Nn1cnc2c(cnn2-c2ccccc2)c1=O)c1ccc(Oc2ccccc2)cc1 | 25µM* | 26% | -8% | 10% | -9% | -6% | -1.8% | 26%
CCCCC(=O)N(CCOC)c1nnc(-c2cccnc2)s1 | / | -5% | -10%[46.1 µM] | -2% | 12% | ? | / | 20%
CCn1c(CN2CCOCC2)nnc1SCC(=O)Nc1ccccc1C | / | -14% | 0% | -1% | 6% | 8% | / | -6%
C=CCOc1c2ccc(C(=O)NCc3ccccc3OC)cc2nn1C | -5% | -7% | / | 3% | 0% | / | 4.9% | -2%
O=C(N/N=C/c1cccs1)c1ccccn1 | -6% | -15% | -3% | -11% | -4% | 15% | -3.8% | 21%
COc1ccc(NC(=S)N(Cc2ccc(C(=O)O)cc2)Cc2ccc(OC)c(OC)c2)cc1 | / | / | 4%[46.1 µM] | 1% | 6% | 1%[46.1 µM] | / | -6%
COc1cccc2c1Oc1ncccc1N(C(=O)Nc1ccc(F)c(Cl)c1)C2 | 23% | / | 6%[46.1 µM] | / | / | / | -0.6% | -30%
CC(=O)N1CCc2c(sc(NC(=O)Cc3ccc(F)cc3)c2C#N)C1 | / | -1% | / | 6% | 6% | / | / | -5%
COc1ccc(C)cc1NC(=O)Nc1cccc(C(=O)O)c1 | / | 2% | ? | 0% | -10% | ? | / | -10%
CCCCC(Sc1nc2cc3c(cc2c(=O)n1CCCC(=O)NCc1ccc2c(c1)OCO2)OCO3)C(=O)OCC (stereo not drawn) | 1% | / | ? | / | / | / | 3.6% | -12%
Cc1ccn2c(CNCCn3cccn3)c(C(=O)N3CCCCCC3)nc2c1 | / | -3% | 18% | 0% | -15% | -8%[46.1 µM] | / | 2%
CC(C)(C)NC(=O)C(=O)NNC(=O)c1ccco1 | / | 2% | / | -1% | 3% | / | / | -14%
CC(=O)n1cc(Nc2ccccc2C(=O)O)c2ccccc21 | -8% | 5% | 11% | -3% | -17% | 10%[46.1 µM] | -5.3% | 1%
Cn1c(=O)c([N+](=O)[O-])c(Cl)c2ccccc21 | / | -62% | ? | -7% | -5% | ? | / | 14µM*
CCOC(=O)c1c(NC(=O)c2nc(S(C)(=O)=O)ncc2Cl)sc(C(C)=O)c1C | -21% | / | -15%[46.1 µM] | / | / | 3%[46.1 µM] | -2.5% | ?
O=C(NCc1cccnc1)c1cccc(-c2cc3ccccc3oc2=O)c1 | / | 6% | -14%[46.1 µM] | 2% | -4% | -12%[46.1 µM] | / | -11%
COc1ccc(CCNC(=O)CCCn2c(=O)c3cccn3c3ccccc32)cc1OC | 1% | / | -11%[46.1 µM] | / | / | / | -6.3% | -17%
CCOC(=O)C1=C(COC(=O)/C=C/c2ccc(SC)cc2)NC(=O)NC1C (stereo not drawn) | / | / | ? | 1% | 5% | ? | / | ?
COc1ccc(Cc2nnc(SCC(=O)N(C)CC(=O)Nc3ccc(C)cc3)o2)cc1 | / | / | 1% | 4% | -5% | -16% | / | -7%
Cc1c(N=C2C=C(Br)C(=O)C(Br)=C2)c(=O)n(-c2ccccc2)n1C | / | 5% | -9% | -2% | ? | 2%[46.1 µM] | / | 2%
COc1cc(Br)c(CN2C(=O)NC3(CCCCCC3)C2=O)cc1OC | / | -2% | ? | 0% | 14% | -20%[46.1 µM] | / | ?
COC(=O)c1cnc2c(C(F)(F)F)cccc2c1OC | 9% | 2% | 5% | 2% | -8% | 16%[46.1 µM] | -3.1% | -17%
Cc1ccc(O)c(C(=O)c2coc(=N)c(C(=O)NC(C)C)c2)c1 | -29% | 8% | 0% | 2% | -6% | -11% | -1.0% | -20%
Cc1ccc(S(=O)(=O)NNC(=S)NCCc2ccccc2)cc1 | / | -3% | / | -1% | 2% | / | / | 6%
COc1ccc(/C=C/c2nc3ccccc3n2Cc2ccc(OC)c(OC)c2)cc1 | -5% | -7% | ? | 0% | -15% | ? | -3.3% | -1%
Cc1ccccc1CSc1nnc(CCCCCNC(=O)OC(C)(C)C)o1 | / | -36% | -10% | -4% | -3% | -19%[14.2 µM] | / | -17%
Cc1nc(Cl)cc(N/N=C/c2ccc(O)cc2)n1 | / | -14% | / | -4% | -4% | / | / | 23%
O=C(NCCN1C(=O)S/C(=C\c2ccc(OC(F)F)cc2)C1=O)C1=COCCO1 | / | / | ? | -4% | 13% | ? | / | -14%
O=C(CC12CC3CC(CC(C3)C1)C2)N1CCCC1 | -6% | -12% | 28% | -5% | 13% | -2% | 3.8% | /
O=C(CSc1nnnn1C1CCCCC1)Nc1ccccc1N1CCOCC1 | / | 6% | / | 0% | 0% | / | / | -18%
Cc1ccc(CNC(=O)CN(C)S(=O)(=O)c2cccc3nsnc23)cc1 | ? | 13% | -2% | ? | -3% | 6% | 1.1% | -10%
O=C(CCNC(=O)c1ccco1)NCCc1ccc(Cl)cc1 | / | -3% | 15% | -1% | 8% | -6% | / | 0%
Cc1csc(NC(=O)COCC(=O)O)c1-c1nc2ccccc2s1 | / | 8% | -1% | -1% | 20% | 12%[46.1 µM] | / | -6%
COc1ccc(C2=[N+]([O-])C(C)(C)N(O)C2C)cc1 (stereo not drawn) | 7% | 4% | ? | 9% | 2% | -1% | -1.5% | 8%
O=C(NC1CCCCC1)N(Cc1nc2ccccc2c(=O)[nH]1)C1CCCC1 | 7% | 2% | -2% | 4% | -3% | ? | -0.2% | 7%
COc1cc(OC)cc(C(=O)N[C@H](C(=O)Nc2nc3ccc(S(C)(=O)=O)cc3s2)C(C)C)c1 | / | / | 14%[46.1 µM] | 0% | 10% | 11%[46.1 µM] | / | 1%
O=C(C1CCCC1)N1CCN=C1SCc1cccc([N+](=O)[O-])c1 | / | / | ? | 0% | -4% | -13%[46.1 µM] | / | -28%
CCOc1cc(/C=C2\C(=O)N(c3cccc(C(F)(F)F)c3)C(=O)c3ccccc32)ccc1O | 17% | 15% | 5% | -5% | 2% | 30% | -6.4% | ?
CC(C)(C)NC(=O)CSc1nc(O)cc(=O)n1-c1ccccc1F | 5% | ? | -5% | -1% | 27% | 0% | -2.5% | 30%
COc1ccc2[nH]cc(CCNC(=O)Nc3cc(C)cc(C)c3)c2c1 | ? | / | -1%[46.1 µM] | / | / | -4%[46.1 µM] | 6.5% | -27%
CCOc1ccc(-c2cc(NC(=O)c3ccc(C)cc3)c(C(=O)OC)s2)cc1 | 2% | / | ? | / | / | 11%[46.1 µM] | -0.3% | -22%
O=C(NCc1ccc2c(c1)OCO2)c1ccc(S(=O)(=O)NCC2CCCO2)cc1 (stereo not drawn) | 0% | -4% | -6% | 2% | -12% | -11% | 2.8% | -14%
CCS(=O)(=O)NCCc1ccc(OC)c(OC)c1 | -3% | 4% | 0% | 7% | 3% | 1% | 2.4% | -5%
COc1ccccc1N1CC(C(=O)OC(C)C(=O)N2CCCc3ccccc32)CC1=O (stereo not drawn) | ? | -6% | 6% | 4% | -9% | -15% | 0.5% | -21%
Cn1cc(C(=O)NC2CCCCCC2)c(=O)c2cc(S(=O)(=O)N3CCCC3)ccc21 | 0% | -36% | -6% | -5% | 6% | 27% | -3.0% | 4%
CC1Cc2ccccc2N1S(=O)(=O)c1cnc(Cl)c(Br)c1 (stereo not drawn) | / | -1% | / | 0% | 5% | / | / | ?
COc1ccc(OC)c2sc(N(Cc3cccnc3)C(C)=O)nc12 | -3% | / | 28%[46.1 µM] | / | / | / | -0.1% | 3%

Source: PubChem

Outcome played no part in choosing rows; 4.6% or so of the library scored in one or more.
